Compound activity deposited in PubChem BioAssay by Broad Institute.
HIV Env fusion = HIV envelope-mediated fusion inhibition; HeLa-JRFL Env/CEM21 cell fusion, luciferase; AID 651610; 1.1% of 360,000 active; inhibition, % at 12.3 µM;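 active means mean replicate inhibition score of at least 50 and every replicate individually at or above 50; inconclusive means only one of the two criteria met; inactive means mean below 50 and not all replicates reaching 50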;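 further: 0% = plate neutral controls and 100% = maraviroc near 300 nM; one replicate is shown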
Starred values were filed as active, the others as inactive; ? = inconclusive; [ ] = dose if it differs, or a comment. An excerpt; rates above refer to the full screens.

HIV Env fusion | SMILES
0.4[16.7 µM] | CCO[C@@H]1OC(C(=O)N2CCCC2)=C[C@H](c2ccc3c(c2)OCO3)[C@H]1CCCO
1.5[16.7 µM] | C[C@H](CO)N1C[C@H](C)[C@H](CN(C)S(=O)(=O)c2cn(C)cn2)Oc2ccc(NC(=O)Nc3ccc(F)cc3)cc2CC1=O
-5.6[16.7 µM] | CCCC(=O)Nc1ccc2c(c1)OC[C@@H](C)N(CC1CCOCC1)C[C@@H](C)[C@@H](OC)CN(C)C2=O
14.7[16.7 µM] | CO[C@H]1CN(C)C(=O)c2ccc(NC(=O)C3CC3)cc2OC[C@H](C)N(C(=O)c2ccncc2)C[C@H]1C
3.4 | COC(=O)[C@]12C[C@H](CC(=O)NCCc3ccccc3OC)C(=O)N(CCC3=CCCCC3)C1=C[C@H](COCc1ccccc1)O[C@@H]2C
-48.1[16.7 µM] | C[C@@H]1CN([C@H](C)CO)C(=O)Cc2cc(NC(=O)Nc3ccc(C(F)(F)F)cc3)ccc2O[C@@H]1CN(C)C(=O)NC1CCCCC1
6.6 | COC(=O)[C@]12C[C@H](CC(=O)N3CCCC3)C(=O)N(Cc3ccccc3)C1=C[C@H](C(C)C)O[C@@H]2C1CC1
-4.5[16.7 µM] | CC(C)NC(=O)Nc1ccc2c(c1)C(=O)N([C@@H](C)CO)C[C@@H](C)[C@@H](CN(C)C(=O)NC1CCCCC1)OCCCC[C@H](C)O2
6.2 | Cn1cc(CC(=O)Nc2ccc(Nc3cccnc3)c(Br)c2)c2ccccc21
-11.5[16.7 µM] | C[C@H](O)C#Cc1cnc2c(c1)C(=O)N([C@H](C)CO)C[C@@H](C)[C@H](CN(C)Cc1ccc(-c3ccccc3)cc1)O2
7.8[16.7 µM] | C[C@H](CO)N1C[C@H](C)[C@H](CN(C)C)Oc2cc(C#Cc3ccccn3)ccc2S1(=O)=O
-7.5[16.7 µM] | CO[C@H]1CC[C@@H]2CCN(C)C(=O)[C@H](C)[C@H](OC)CN(C)C(=O)c3cccc(C#N)c3OC[C@@H]1O2
-103.7 | Cc1ccc(C2NC(=O)c3n[nH]c(C)c32)cc1 (stereo not given)
-13.8[16.7 µM] | O=C(O)C[C@@H]1C[C@H]2c3cc(NS(=O)(=O)c4ccc(F)cc4)ccc3O[C@H]2[C@H](CO)O1
15.5 | COc1ccc(Cn2c(C)cc(O)cc2=O)cc1
-2.1 | Cc1cc(NN=Cc2ccccn2)nc2c(C)cccc12
-72.1[16.7 µM] | C[C@H](CO)N1C[C@H](C)[C@H](CN(C)C(=O)C2CCCCC2)OCCCC[C@H](C)Oc2ccc(NC(=O)c3ccncc3)cc2C1=O
-9.9 | Cc1cc2c(nc1C)CCCN2Cc1ccccc1C(F)(F)F
1.5[16.7 µM] | COc1ccc(NC(=O)N(C)C[C@@H]2Oc3ccc(N(C)C)cc3CC(=O)N([C@@H](C)CO)C[C@@H]2C)cc1
-4.9[16.7 µM] | CO[C@@H]1CN(C)C(=O)c2cc(NS(C)(=O)=O)ccc2OC[C@@H](C)N(C)C[C@@H]1C

An excerpt from above in order of their number in HIV Env fusion, falling:
SMILES	HIV Env fusion
COc1ccc(Cn2c(C)cc(O)cc2=O)cc1	15.5
COC(=O)[C@]12C[C@H](CC(=O)NCCc3ccccc3OC)C(=O)N(CCC3=CCCCC3)C1=C[C@H](COCc1ccccc1)O[C@@H]2C	3.4
Cc1cc2c(nc1C)CCCN2Cc1ccccc1C(F)(F)F	-9.9

Next section:
HIV Env fusion | SMILES
0.2[16.7 µM] | CN1C(=O)c2cc(NC(=O)C3CCCCC3)ccc2OC[C@H]2O[C@H](CC(=O)NC3CCCC3)CC[C@@H]21
1.6[16.7 µM] | C[C@H](CO)N1C[C@H](C)[C@@H](CN(C)S(C)(=O)=O)OCCCC[C@H](C)Oc2ccc(NC(=O)CCC(F)(F)F)cc2C1=O
-36.2[16.7 µM] | Cc1noc(C)c1NC(=O)Nc1ccc2c(c1)C(=O)N([C@@H](C)CO)C[C@@H](C)[C@H](CN(C)S(=O)(=O)c1ccc(Cl)cc1)OCCCC[C@@H](C)O2
-6.8[16.7 µM] | CCNC(=O)Nc1ccc2c(c1)C(=O)N(C)[C@@H]1CC[C@@H](CC(=O)N[C@@H](C)c3ccccc3)O[C@@H]1CO2
9.8[16.7 µM] | COCCNC(=O)C[C@@H]1C[C@H]2c3cc(NC(=O)CN(C)C)ccc3O[C@H]2[C@H](CO)O1
13.9[16.7 µM] | C[C@H]1CN([C@@H](C)CO)C(=O)c2ccccc2-c2ccccc2CO[C@@H]1CN(C)CC1CC1
0.8[16.7 µM] | CO[C@H]1CN(C)C(=O)c2ccc(NC(=O)c3nc4ccccc4s3)cc2OC[C@@H](C)N(Cc2cccnc2)C[C@@H]1C
4.5[16.7 µM] | CCCNC(=O)[C@@H]1[C@@H](CO)[C@@H]2Cn3c(ccc(-c4cccnc4)c3=O)[C@@H]2N1C(=O)c1ccccc1F
15.0[16.7 µM] | CC(C)NC(=O)Nc1ccc2c(c1)C(=O)N([C@@H](C)CO)C[C@@H](C)[C@@H](CN(C)C(=O)NC(C)C)OCCCC[C@@H](C)O2
8.3[16.7 µM] | O=C(C[C@@H]1CC[C@H]2[C@@H](COC[C@H](O)CN2Cc2cccc(Cl)c2)O1)N1CCCCC1
15.1[16.7 µM] | CCC(=O)N1C[C@H](C)[C@H](OC)CN(C)C(=O)c2ccc(NC(=O)Nc3ccc(Cl)cc3)cc2OC[C@@H]1C
37.6[16.7 µM] | O=C(N[C@H]1CC[C@@H](CCn2cc(-c3ccccc3F)nn2)O[C@H]1CO)c1ccc2c(c1)OCO2
-32.0 | O=S(=O)(c1cccs1)N1CCCc2nc(-c3ccc(Br)cc3)ccc21
-1.7[16.7 µM] | CS(=O)(=O)Nc1ccc2c(c1)[C@@H]1C[C@H](CC(=O)NC3CCCC3)O[C@@H](CO)[C@@H]1O2
-0.4[16.7 µM] | C[C@@H]1CN([C@H](C)CO)C(=O)c2cc(NC(=O)Cc3ccccc3)ccc2O[C@@H]1CN(C)C(=O)Nc1ccc(C(F)(F)F)cc1
-5.0[16.7 µM] | COc1ccccc1-c1ccc2n(c1=O)C[C@@H]1[C@@H](CO)[C@H](C(=O)NCc3ccccc3Cl)N[C@H]21
-8.6[16.7 µM] | C[C@H](CO)N1C[C@H](C)[C@@H](CN(C)CC2CC2)OCCCC[C@H](C)Oc2ccc(NC(=O)Nc3ccc4c(c3)OCO4)cc2C1=O
-34.0 | COC(=O)c1cc2c(c3c4ccccc4n(S(=O)(=O)c4ccc(OC)cc4)c13)C(=O)N(Cc1ccco1)C2
-67.3 | O=[N+]([O-])c1cccc(COc2ccc(CO)cc2)c1
-11.3[16.7 µM] | COc1ccccc1C#Cc1ccc2c(c1)O[C@@H](CN(C)C)[C@@H](C)CN([C@H](C)CO)S2(=O)=O
17.9[16.7 µM] | O=C(Cc1ccccc1)N1CC[C@H]2[C@H](CO)Nc3ccc(C4=CCCCC4)cc3[C@H]21
0.0[16.7 µM] | C[C@@H]1CN([C@H](C)CO)C(=O)c2cc(NC(=O)Cc3ccccc3)ccc2O[C@@H](C)CCCCO[C@H]1CN(C)C
-9.5 | COC(=O)c1cc2c(c3c4cc(OC)ccc4n(S(=O)(=O)c4cccc(C)c4)c13)C(=O)N(Cc1ccc(N(C)C)cc1)C2
-4.5[16.7 µM] | COc1ccccc1NC(=O)N1C[C@H](O)COC[C@@H]2O[C@H](CC(=O)NCc3ccccc3)CC[C@H]21
-10.0[16.7 µM] | COc1ccc(CN(C)C[C@@H]2Oc3c(NS(C)(=O)=O)cccc3C(=O)N([C@@H](C)CO)C[C@@H]2C)cc1
-4.3[16.7 µM] | CO[C@@H]1CC[C@H]2CCN(C)C(=O)C[C@@H](c3ccccc3)CN(C)C(=O)c3cccc(C#N)c3OC[C@@H]1O2
23.4[16.7 µM] | C[C@@H](NC(=O)C[C@H]1C=C[C@@H](NC(=O)Nc2ccc3c(c2)OCO3)[C@H](CO)O1)c1ccccc1
-12.4[16.7 µM] | CN1CCN(C(=O)C[C@@H]2CC[C@@H]3[C@H](COC[C@H](O)CN3C(=O)Nc3ccc4c(c3)OCO4)O2)CC1
5.4 | COc1cc2c(cc1OC)[N+]([O-])=C(c1ccccc1)C2=O
3.1 | Cc1nn(C2CCS(=O)(=O)C2)c2nc(C3CC3)cc(C(=O)Nc3ccc(C(N)=O)cc3)c12 (stereo not given)
24.7[16.7 µM] | CO[C@H]1CN(C)C(=O)c2ccc(NC(=O)C3CC3)cc2OC[C@@H](C)N(Cc2cc(F)ccc2F)C[C@@H]1C
-76.9 | COc1ccc(CN(C)C(=O)CSc2nnc(C3CC3)n2C2CC2)cc1
-8.6[16.7 µM] | CO[C@H]1CN(C)C(=O)c2cc(NC(=O)C3CC3)ccc2OC[C@H](C)N(C(=O)c2ccccc2F)C[C@H]1C
0.1[16.7 µM] | COCC(=O)N1[C@@H]2Cn3c(ccc(/C=C/c4ccccc4)c3=O)[C@H]1[C@@H](C(=O)N1CCOCC1)[C@@H]2CO
-0.7 | CCCCNC(=O)C[C@H]1C[C@@]2(C(=O)OC)C(=C[C@H](C3CCCC3)O[C@@H]2C)N(Cc2ccccc2)C1=O
-22.9[16.7 µM] | COc1cccc(NC(=O)N(C)C[C@@H]2Oc3ncc(C#Cc4ccncc4)cc3C(=O)N([C@@H](C)CO)C[C@@H]2C)c1
-0.5[16.7 µM] | CN1C(=O)c2cc(NS(C)(=O)=O)ccc2OC[C@@H]2O[C@H](CC(=O)NC3CCCCC3)CC[C@H]21
-3.8[16.7 µM] | CN1CCN(C(=O)c2cc3c(c(-c4cccc(C#CCC5CCCC5)c4)n2)[C@@H](CCO)N(S(=O)C(C)(C)C)C3)CC1 (stereo not given in full)
-124.1 | C#CCN1CC(COc2ccccc2)Oc2cccc(Oc3ccc(SC)c(C)c3)c2S1(=O)=O (stereo not given)
1.5[16.7 µM] | CO[C@H]1CN(C)C(=O)c2cc(NS(=O)(=O)c3cccc(F)c3)ccc2OC[C@@H](C)N(C(=O)Cc2cccnc2)C[C@H]1C

Look-ups from the list:
CN1CCN(C(=O)c2cc3c(c(-c4cccc(C#CCC5CCCC5)c4)n2)[C@@H](CCO)N(S(=O)C(C)(C)C)C3)CC1 (stereo not given in full) | HIV Env fusion = -3.8[16.7 µM]
COc1ccccc1NC(=O)N1C[C@H](O)COC[C@@H]2O[C@H](CC(=O)NCc3ccccc3)CC[C@H]21 | HIV Env fusion = -4.5[16.7 µM]
CO[C@H]1CN(C)C(=O)c2ccc(NC(=O)C3CC3)cc2OC[C@@H](C)N(Cc2cc(F)ccc2F)C[C@@H]1C | HIV Env fusion = 24.7[16.7 µM]
COCC(=O)N1[C@@H]2Cn3c(ccc(/C=C/c4ccccc4)c3=O)[C@H]1[C@@H](C(=O)N1CCOCC1)[C@@H]2CO | HIV Env fusion = 0.1[16.7 µM]
CN1CCN(C(=O)C[C@@H]2CC[C@@H]3[C@H](COC[C@H](O)CN3C(=O)Nc3ccc4c(c3)OCO4)O2)CC1 | HIV Env fusion = -12.4[16.7 µM]
COc1ccc(CN(C)C[C@@H]2Oc3c(NS(C)(=O)=O)cccc3C(=O)N([C@@H](C)CO)C[C@@H]2C)cc1 | HIV Env fusion = -10.0[16.7 µM]

The list goes on.
HIV Env fusion | SMILES
-3.8 | O=C1[C@@H]2[C@H](C(=O)N1C[C@@H](COCc1ccccc1)Oc1cccc3c1S(=O)(=O)N(CCc1ccc(F)cc1)C[C@H](COCc1ccccc1)O3)[C@@H]1C=C[C@H]2C1
8.3[16.7 µM] | COc1ccc2c3c([nH]c2c1)[C@@H](CO)N(C(=O)c1ccc(F)cc1)CC31CCN(C(=O)Nc2cccc(F)c2)CC1
-8.4[16.7 µM] | CCCN1C[C@@H](C)[C@@H](OC)CN(C)C(=O)c2ccc(NS(=O)(=O)c3cn(C)cn3)cc2OC[C@@H]1C
-3.9 | COC(=O)C1=C(C)N(Cc2cccc(C(F)(F)F)c2)C(=NCc2ccc3c(c2)OCO3)NC1c1ccccc1C(F)(F)F (stereo not given)
6.7[16.7 µM] | O=C(C[C@@H]1CC[C@H]2[C@@H](COC[C@@H](O)CN2Cc2nccs2)O1)NCc1ccccc1Cl
? | O=C1N[C@H](c2ccccc2)COCc2cn(nn2)CC[C@@H]1Cc1cccc(Cl)c1
-0.6 | Cc1ccc(C(=O)N2CCC[C@@H]2C(=O)N2CCC[C@@H]2C(=O)NCc2ccccc2)cc1
3.5[16.7 µM] | C[C@H]1CN([C@@H](C)CO)C(=O)c2ccccc2-c2ccccc2CO[C@H]1CN(C)C(=O)c1ccncc1
13.7[16.7 µM] | COc1cccc(CNC(=O)C[C@H]2CC[C@@H](NC(C)=O)[C@H](CO)O2)c1
-15.9[16.7 µM] | Cc1ccccc1S(=O)(=O)N1C[C@@H](O)COC[C@@H]2O[C@@H](CC(=O)NCCc3ccccc3)CC[C@H]21
19.0 | COC(=O)C1=C(C)N(Cc2ccc(C(F)(F)F)cc2)C(=NCc2ccccc2)NC1c1ccc(Cl)cc1 (stereo not given)
13.7[16.7 µM] | CO[C@@H]1CC[C@H]2CCN(C)C(=O)C[C@H](c3ccccc3)CN(C)C(=O)c3cccc(C#N)c3OC[C@@H]1O2
-7.3 | O=C(NCC1CCN(C(=O)C(=O)c2cc3ccccc3o2)CC1)c1ccc2c(c1)OCCCO2
5.8[16.7 µM] | COc1ccccc1NC(=O)N1C[C@@H](O)COC[C@H]2O[C@@H](CC(=O)N3CCC(Cc4ccccc4)CC3)CC[C@@H]21
4.7[16.7 µM] | CC(C)NC(=O)Nc1ccc2c(c1)C(=O)N([C@@H](C)CO)C[C@H](C)[C@@H](CN(C)C(=O)NC1CCCCC1)O2
1.9[16.7 µM] | O=C(C[C@H]1C[C@@H]2c3cc(NC(=O)C4CCC4)ccc3O[C@@H]2[C@H](CO)O1)NCc1ccccn1
16.7[16.7 µM] | CS(=O)(=O)Nc1ccc2c(c1)[C@@H]1C[C@@H](CC(=O)NCc3ccccn3)O[C@@H](CO)[C@@H]1O2
-18.4[16.7 µM] | O=C(C[C@@H]1C[C@@H]2c3cc(NS(=O)(=O)c4ccc(F)cc4)ccc3O[C@@H]2[C@@H](CO)O1)N1CCc2ccccc2C1
11.4[16.7 µM] | CCS(=O)(=O)Nc1ccc2c(c1)C(=O)N(C)C[C@H](OC)[C@@H](C)CN(CC1CCCC1)[C@H](C)CO2
